TsaE inh: inhibitors of E. coli YjeE (TsaE). P0AF67. purified YjeE, fluorescence polarisation of a bound ADP probe. Potency, µM. actives 0.05% (n = 71,000). AID 605; active = well fitted falling curve; inconclusive = weaker or top-dose-only fall, or a rising curve; inactive = flat or poorly fitted curve;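 also: top concentration of the series not given in the record; excess ADP was the control for the full effect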
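Purified YjeE (10 uM) with BODIPY Texas Red-labeled ADP probe (2 uM); compounds pin-transferred, 15 min at room temperature. Binding inhibition read as decreased fluorescence polarization; ADP titration as control.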
Bst PK mod: alters activity of Bacillus stearothermophilus pyruvate kinase | Potency, µM | partly purified Bacillus stearothermophilus pyruvate kinase, luminescence ATP production; ribose 5-phosphate activator present at AC10 | actives 1.2% (n = 51,000) | AID 361; in the data active means potency below about 11 µM; inconclusive means mostly about 12 µM to 25 µM; inactive means weaker than that;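 the screen sought inhibitors and activators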;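 also: potency is read from the fitted curve at half-maximal effect; scaled between full activation by ribose 5 phosphate and full inhibition by luteolin; about four in five hits inhibit and the cells do not say which; series up to 57 µM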
* hit, by the source's call; i = inactive; ? = inconclusive; . = not tested or not shown; ! = not confirmed by another sample. An excerpt; count on the stated rates, not on these rows.

SMILES	TsaE inh	Bst PK mod
O=C(O)[C@@H](O)[C@@H](O)[C@@H](O)[C@@H](O)C(=O)O (tested in a mixture with another compound)	i	.
O=C1c2c(O)ccc(O)c2C(=O)c2c(NCCNCCO)ccc(NCCNCCO)c21	79µM*!	.
CCCCN(CCCC)CCCOC(=O)c1ccc(N)cc1	i	>26
CC(C)(C)NCC(O)COc1cccc2c1C[C@H](O)[C@H](O)C2 (some centres not stated)	.	>11
CCCCCCCCCCCCCCC[C@@H](O)[C@@H](N)CO	?	.
COc1cc(C2Oc3cc(C4Oc5cc(O)cc(O)c5C(=O)C4O)ccc3OC2CO)ccc1O (configuration not stated)	.	>26
Cc1ccsc1/C=C\C1=NCCCN1C	i	.
O=P(O)(O)OP(=O)(O)O	i	.
Cc1c(C(=O)O)c(O)cc2c1C(=O)c1c(O)c([C@@H]3O[C@H](CO)[C@@H](O)[C@H](O)[C@@H]3O)c(O)c(O)c1C2=O	i	.
CN(C(=O)c1c(O)c2ccccc2n(C)c1=O)c1ccccc1	i	.
Nc1ncnc2c1c(-c1ccc(Oc3ccccc3)cc1)cn2C1CCCC1	i	.
CN(C)C/C=C(\c1ccc(Br)cc1)c1cccnc1	i	.
CCCC(=O)O[C@]1(C(=O)COC(C)=O)CC[C@H]2[C@@H]3C[C@H](F)C4=CC(=O)C=C[C@]4(C)[C@@]3(F)[C@@H](O)C[C@@]21C	.	>26
CC(C)(CO)[C@H](O)C(=O)NCCCO	i	.
CC[C@@]12CCCN3CCc4c(n(c5ccccc45)[C@](O)(C(=O)OC)C1)[C@H]32	i	.

Part of the list above, reformatted:
TsaE inh	Bst PK mod	SMILES
i	>26	CCCCN(CCCC)CCCOC(=O)c1ccc(N)cc1
i	.	Cc1ccsc1/C=C\C1=NCCCN1C
i	.	CN(C)C/C=C(\c1ccc(Br)cc1)c1cccnc1
i	.	CC(C)(CO)[C@H](O)C(=O)NCCCO
.	>26	CCCC(=O)O[C@]1(C(=O)COC(C)=O)CC[C@H]2[C@@H]3C[C@H](F)C4=CC(=O)C=C[C@]4(C)[C@@]3(F)[C@@H](O)C[C@@]21C
.	>26	COc1cc(C2Oc3cc(C4Oc5cc(O)cc(O)c5C(=O)C4O)ccc3OC2CO)ccc1O (configuration not stated)
.	>11	CC(C)(C)NCC(O)COc1cccc2c1C[C@H](O)[C@H](O)C2 (some centres not stated)

(continued)
SMILES	TsaE inh	Bst PK mod
CCc1ccccc1OC[C@@H](O)CN[C@H]1CCCc2ccccc21	i	.
C=C1c2cccc(O)c2C(O)=C2C(=O)[C@@]3(O)C(O)=C(C(N)=O)C(=O)[C@@H](N(C)C)[C@@H]3[C@@H](O)[C@H]12	i	.
CCCCOc1cc(C(=O)OCCN(CC)CC)ccc1N	i	.
CC1(C)O[C@@H]2C[C@H]3[C@@H]4C[C@H](F)C5=CC(=O)C=C[C@]5(C)[C@@]4(F)[C@@H](O)C[C@]3(C)[C@]2(C(=O)CO)O1	.	>26
CN[C@@H]1[C@H](O)[C@H](NC)[C@@H]2O[C@]3(O)C(=O)C[C@@H](C)O[C@H]3O[C@@H]2[C@H]1O	i	.
Cn1ccc2cc3c(cc21)CCN3C(=O)Nc1cccnc1	i	.
COc1cc2nc(N3CCN(C(=O)[C@@H]4COc5ccccc5O4)CC3)nc(N)c2cc1OC	i	.
Cc1cc(=O)oc2cc(O)ccc12	i	.
C=Cc1ccccc1	i	.
COc1cc(N)c(Cl)cc1C(=O)N[C@H]1CCN(CCCOc2ccc(F)cc2)C[C@H]1OC	i	.
COc1cc(C=O)ccc1O	i	.
CC(C)NNC(=O)c1ccncc1	i	.
CN(C)c1ccc2nc3ccc(=[N+](C)C)cc-3sc2c1	i	.
CCN(CCCCOC(=O)c1ccc(OC)c(OC)c1)C(C)Cc1ccc(OC)cc1 (configuration not stated)	.	>11
CCCCCCCCCCCCCCCC(O)C(N)CO (configuration not stated)	.	>26

Reprinted at random: 6 compounds from above.
SMILES	TsaE inh	Bst PK mod
CC1(C)O[C@@H]2C[C@H]3[C@@H]4C[C@H](F)C5=CC(=O)C=C[C@]5(C)[C@@]4(F)[C@@H](O)C[C@]3(C)[C@]2(C(=O)CO)O1	.	>26
CN[C@@H]1[C@H](O)[C@H](NC)[C@@H]2O[C@]3(O)C(=O)C[C@@H](C)O[C@H]3O[C@@H]2[C@H]1O	i	.
Cc1cc(=O)oc2cc(O)ccc12	i	.
CN(C)c1ccc2nc3ccc(=[N+](C)C)cc-3sc2c1	i	.
CCN(CCCCOC(=O)c1ccc(OC)c(OC)c1)C(C)Cc1ccc(OC)cc1 (configuration not stated)	.	>11
CC(C)NNC(=O)c1ccncc1	i	.

(list continues)
SMILES	TsaE inh	Bst PK mod
Nc1c2ccccc2nc2ccccc12	i	.
CCCCNCC	i	.
CCc1cccc(CC)c1NC(=O)CN(CC(=O)O)CC(=O)O	i	.
N=c1nc(N2CCCCC2)cc(N)n1O	i	>26
CCCOc1ccc2nc(NC(=O)OC)[nH]c2c1	.	>26
C[C@@]12CC[C@H]3[C@@H](CCC4=CC(=O)CC[C@]43C)[C@H]1CC[C@H]2C(=O)CO	i	.
Cc1onc(-c2ccccc2Cl)c1C(=O)N[C@H]1C(=O)N2[C@H]1SC(C)(C)[C@H]2C(=O)O	i	.
Cc1scc2c1N(C(=O)CN1CCN(C)CC1)c1ccccc1NC2=O	i	.
CCCC(=O)O[C@]1(C(=O)CCl)[C@@H](C)C[C@H]2[C@@H]3CCC4=CC(=O)C=C[C@]4(C)[C@@]3(F)C(=O)C[C@@]21C	.	>26
Cc1cc(Cn2cnc3c2C[C@@H](C(=O)O)N(C(=O)C(c2ccccc2)c2ccccc2)C3)ccc1N(C)C	i	.
COc1ccc(C(=O)c2ccccc2)c(O)c1	i	>57
Nc1ncnc2nc[nH]c12.Nc1ncnc2nc[nH]c12.[Cl][Pt]([Cl])([Cl])[Cl]	i	.
COC(=O)c1ccccc1O	i	.
CC[C@]1(O)C[C@H]2CN(CCc3c([nH]c4ccccc34)[C@](C(=O)OC)(c3cc4c(cc3OC)N(C)[C@@H]3[C@](O)(C(=O)OC)[C@H](OC(C)=O)[C@]5(CC)C=CCN6CC[C@]43[C@@H]65)C2)C1	i	.
CCN(CC)CCOc1ccc(Cc2ccccc2)cc1	i	.
CCCOc1ccc(C(=O)OCCN(CC)CC)cc1N	i	.
C[C@H](N)C1CCC(C(=O)Nc2ccncc2)CC1 (some centres not stated)	i	.

High-throughput results as filed in PubChem BioAssay.
